Sfp inh = qHTS Assay for Inhibitors of Bacillus subtilis Sfp phosphopantetheinyl transferase (PPTase). 4'-phosphopantetheinyl transferase ffp (Bacillus subtilis), Q9F4F7. Biochemical Sfp PPTase activity, qHTS. 310,000 tested, 3.5% active. Potency, µM, without a hit: max response, negative = inhibition, hits mostly inhibitors. AID 1490, 2009; active = well fitted inhibition curve with a large enough effect; inconclusive = small, poorly fitted or top-dose-only effect, or another doubt; inactive = no such curve, though single readings can be large or run the other way;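 note: the enzyme is Sfp with the accession as filed and its product quenches rhodamine fluorescence; potency is the fitted concentration of half-maximal effect; 0% = enzyme reaction without inhibitor and -100% = no enzyme wells; top concentration of the series not given in the record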
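After 15 min at room temperature with compound, 15 nM Sfp received 5 uM rhodamine-CoA plus 12.5 uM BHQ-2-ybbR (50 mM Hepes pH 7.6, 10 mM MgCl2). Rate came from the fluorescence difference over 30 min, ex 525/em 598 nm.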
gsp agonist = qHTS for Agonist of gsp, the Etiologic Mutation Responsible for Fibrous Dysplasia/McCune-Albright Syndrome: qHTS; gsp mutant cells, cAMP HTRF, 30 min; control for the full effect not named in the record; 340,000 tested, 0.13% active; AID 624287, 2012; Potency, µM (top dose mostly 76.9 µM), inactives show at the highest dose activation (cAMP increase), actives largely listed as activators; active = well fitted activation curve with a large enough effect; inconclusive = small, poorly fitted or top-dose-only effect, or another doubt; inactive = no such curve, though single readings can be large or run the other way; cell line not stated here;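 note: phosphodiesterase inhibitor Ro 20-1724 added with compounds to block cAMP breakdown; potency is the fitted concentration of half-maximal effect; nearly all actives have a fitted effect of over 60% in size; about a fifth of the inactives were tested at one dose only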
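Cells in DMEM/10% FBS with G418 were pretreated with compounds in DMSO plus […] (300 uM stock) for 30 min at 37C. cAMP was measured by HTRF (cAMP-d2 plus anti-cAMP antibody-K) after 30 min at room temperature.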
ClpP mod = qHTS Assay for Activators of ClpP; ATP-dependent Clp protease proteolytic subunit (Bacillus subtilis (strain 168)), P80244; purified B. subtilis ClpP, FRET peptide cleavage, 20 min; Potency, µM (series often up to 57.5 µM), for inactives: at the highest dose activity change, negative = active; 340,000 tested, 1.9% active; AID 651965, 2013; active = well fitted falling curve with a large enough effect; inconclusive = small, poorly fitted or top-dose-only effect; inactive = no such curve, though single readings can be large or run the other way; note: potency is the fitted concentration of half-maximal effect; the source files actives as falling curves though it sought activators and does not explain the sign; nearly all actives have a fitted effect of over 65% in size; many hits overshoot -100%
Target sequence (P80244 whole entry, looked up): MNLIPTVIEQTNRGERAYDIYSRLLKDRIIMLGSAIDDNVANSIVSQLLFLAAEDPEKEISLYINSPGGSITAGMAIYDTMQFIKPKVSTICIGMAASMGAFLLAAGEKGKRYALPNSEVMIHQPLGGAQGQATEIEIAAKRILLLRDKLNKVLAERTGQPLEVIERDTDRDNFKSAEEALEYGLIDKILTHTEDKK
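Buffer: 100 mM Tris/HCl pH8, 100 mM KCl, 0.05% low protease BSA, 2.5% glycerol, 0.01% Tween-20. ClpP 10 microg/mL final; 20 min RT; delta FRET normalized to ADEP and DMSO controls.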
D2 ag = Beta-Arrestin HTS for Positive Allosteric Modulators of the Human D2 Dopamine Receptor: Agonists; activation, % (no concentration beside the values); D(2) dopamine receptor (Homo sapiens), P14416; DiscoveRx PathHunter D2 beta-arrestin, luminescence, 90 min; 100% = 57 uM dopamine signal; AID 624465, 2012; 360,000 tested, 0.084% active; in the data active = activation above about 40%; inconclusive = about 15% to 40%; inactive = below about 15%; note: compound concentration not given in the record; the text of the record calls up to 30% inactive
Target sequence (P14416 whole entry, looked up): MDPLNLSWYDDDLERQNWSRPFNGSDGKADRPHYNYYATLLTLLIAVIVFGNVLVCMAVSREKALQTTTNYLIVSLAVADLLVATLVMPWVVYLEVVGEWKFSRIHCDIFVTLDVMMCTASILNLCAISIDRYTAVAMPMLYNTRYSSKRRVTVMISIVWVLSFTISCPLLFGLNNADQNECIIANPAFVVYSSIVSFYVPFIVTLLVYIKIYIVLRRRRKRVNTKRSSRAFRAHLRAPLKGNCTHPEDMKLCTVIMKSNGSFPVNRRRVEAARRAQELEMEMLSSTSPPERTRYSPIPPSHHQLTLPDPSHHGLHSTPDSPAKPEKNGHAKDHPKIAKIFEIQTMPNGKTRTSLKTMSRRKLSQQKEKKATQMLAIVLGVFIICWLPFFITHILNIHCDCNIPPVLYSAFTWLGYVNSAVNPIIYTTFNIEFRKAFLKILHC
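DiscoveRx PathHunter D2 beta-arrestin cells (2,100/well) attached overnight, then compound-stimulated 90 min at 37 C in HBSS/10 mM HEPES/0.1% Tween-20 buffer; beta-galactosidase complementation read by luminescence after 1 h at ambient temperature. Dopamine 57 uM final (EC100) as control.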
gsp antag = qHTS for Antagonists of gsp, the Etiologic Mutation Responsible for Fibrous Dysplasia/McCune-Albright Syndrome: qHTS; gsp-mutant cells, cAMP HTRF, 30 min; control for the full effect not named in the record; Potency, µM (titrated, usually from 76.9 µM), for the others: at the top dose activity change, negative = inhibition, actives largely listed as inhibitors; 340,000 tested, 0.4% active; active = falling curve of any shape with a large fitted effect; inconclusive = falling curve, mostly with a smaller effect; inactive = flat or rising curve; cell line not stated here;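 note: intracellular cAMP measured with PDE inhibitor Ro 20-1724 present during compound exposure; potency is the fitted concentration of half-maximal effect; % is set by controls: 0 for no effect and ±100 for the full control effect; nearly all actives have a fitted effect of over 65% in size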
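G418-selected cells were plated in DMEM/10% FBS for 16-24 h at 37C, then treated with compounds plus the PDE inhibitor […] (300 uM solution added) for 30 min at 37C. Intracellular cAMP was measured by HTRF after 30 min lysis at room temperature.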
Menin-MLL FL inh = qHTS Assay for Inhibitors Targeting the Menin-MLL Interaction in MLL Related Leukemias: Competition With Fluorescein Labeled MLL-derived Peptide | Fluorescence polarization, fluorescein-MLL peptide displacement from menin | FP activity change, % at 61.4 µM | 290,000 tested, under 10 active; inconclusive = falling polarisation curve, or a change in total fluorescence; inactive = total fluorescence flat and polarisation flat or rising; no compound was filed as active; the % refers to the polarisation; negative = inhibition;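 note: % of control where 0% means no effect; inhibitors lower the polarisation; unlabelled MLL peptide was the positive control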
PINK1 modulator = A Quantitative High throughput Screen to Identify Chemical Modulators of PINK1 Expression. PINK1 immunofluorescence, high-content cytometry, 24 h. Potency, µM (titrated, usually from 76.6 µM), without a hit: top-dose activation (PINK1 increase), usual class: activators. 410,000 tested, 0.2% active; active = well fitted activation curve with a large enough effect; inconclusive = small, poorly fitted or top-dose-only effect; inactive = flat fitted curve, though single readings scatter; cell line not stated here;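 note: potency is the fitted concentration of half-maximal effect; % of control where 0% means no effect; nearly all actives have a fitted effect of over 65% in size; a mitochondrial uncoupler was the plate control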
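Decision-based qHTS: stable cells, 24 h exposure to five compound concentrations, CCCP as control. Fixed cells stained for PINK1 plus nuclear, mitochondrial and cell markers, cytometer read.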
* marks the source's active call; other numbers are inactive results; ? = inconclusive; . = not tested or not shown; [ ] = remark or other dose.

SMILES	Sfp inh	gsp agonist	ClpP mod	D2 ag	gsp antag	Menin-MLL FL inh	PINK1 modulator
CCOc1ccc(N(CC(=O)NC2CCCC2)C(=O)CCC(=O)Nc2nc(C)cs2)cc1	16%	-16%	.	-1.6	3%	-0.9	-2.1%
COc1ccc(NC(=O)c2ccccc2NC(=O)CSc2ccc(C)cc2)cc1	?	-17%	-27%	5.6	8%	6.7	.
CCOC(=O)c1ccccc1NC(=O)COC(=O)C(CC(C)C)NC(N)=O (stereo unspecified)	12%	1%	-0.3%	-3.1	0%	1.2	6.5%
CC(C)C(OC(=O)c1cc2c(s1)CCCCC2)C(=O)NC(N)=O (stereo unspecified)	17%	28%	1.3%	0.6	10%	-1.3	18%
O=C(CN1CCN(C(=O)c2ccco2)CC1)Nc1ccc(Br)cc1	11%	-1%[15.4 µM]	.	5.0	.	5.6	-0.2%
CCSc1nnc(NC(=O)CSc2nncc(=O)n2N)s1	?	0%	.	0.8	5%	1.4	-0.5%
O=C(CCCc1nc(-c2ccc(Cl)cc2)no1)NC1CCCCC1	18%	18%[15.4 µM]	-1.0%	-4.4	-7%	-0.3	2.8%
COC(=O)c1ccc(/C=N/OCC(=O)NCCc2ccc(OC)c(OC)c2)cc1	7%	-51%[inhibitor]	0.7%	-3.5	-12%	5.0	-0.4%
CCNC(=O)Nc1cc(S(=O)(=O)Nc2ccc(OC)cc2)ccc1N1CCOCC1	.	?	0.6%	12	-8%	.	-1.3%
COc1ccc(Cl)cc1-c1nc(SCC(=O)NC2CCS(=O)(=O)C2)n[nH]1 (stereo unspecified)	.	12%	-7.9%	-1.8	4%	.	1.8%
CC1N=C(SCC(=O)c2ccc(F)cc2)N2C(C)N=C(SCC(=O)c3ccc(F)cc3)N12 (stereo unspecified)	.	-38%[inhibitor]	-1.0%	-4.1	.	.	3.2%
O=C(O)c1cccc(NC(=S)N/N=C/c2c[nH]c3ccccc23)c1	6%	0%	.	3.8	4%	0.8	1.4%
Cc1ccc(C(=O)Cn2cnc3ccccc3c2=O)cc1	1%	12%	1.6%	-2.0	-7%	2.9	-0.3%
COc1ccccc1Cc1nc(-c2ccc(C)cc2)no1	-1%	-11%	0.5%	-1.2	17%	3.8	2.5%
O=C(NCCC(=O)N1CCCC1)c1ccccc1Cl	4%	?	0.6%	-1.6	9%	.	0.7%
Cc1cccc(C(=O)NNC2=C(C(=O)C(F)(F)F)CCC2)c1O	3%	-9%	1.3%	-4.1	-9%	3.5	16µM*
CC1CC(NC(=O)/C=C/C(=O)O)CC(C)(C)C1 (stereo unspecified)	1%	-6%[15.4 µM]	.	-3.8	10%	-0.8	-1.0%
CN(C)S(=O)(=O)c1cc(NC(=O)COC(=O)/C=C/c2ccco2)ccc1Cl	?	-4%	-2.8%	-1.2	3%	5.3	0.3%
Cc1cc(NCc2ccccc2)n2ncc(-c3ccccc3)c2n1	-3%	18%	.	7.9	-5%	1.0	5.0%
O=C(c1ccccc1)c1ccc(O)cc1O	3%	1%	-3.0%	-5.7	-10%	?	2.3%
CCOC(=O)c1ccc(CSc2nnc(-c3ccncc3)n2N)cc1	-6%	1%	?	0.0	-2%	-1.5	-1.2%
O=C(O)c1ccc(N/C(=N\S(=O)(=O)c2ccc(Cl)cc2)c2ccccc2)cc1	22%	25%	-1.8%	-0.9	9%	2.1	0.4%
CCCCCC(=O)N/N=C/c1cccs1	-2%	?	1.3%	-2.1	2%	3.5	4.8%[38.3 µM]
Cn1c(=O)n(CCc2ccccc2)c(=O)c2c1nc1n2CCCN1CCc1ccccc1	-4%	1%	-8.6%	-1.1	?	-0.8	-4.5%
CN(C)NC(=S)Nc1cccc(Cl)c1	13%	-15%	.	3.2	12%	6.3	-0.6%

3 structures out of the list, arranged by molar mass, low to high.
SMILES	Sfp inh	gsp agonist	ClpP mod	D2 ag	gsp antag	Menin-MLL FL inh	PINK1 modulator
CCSc1nnc(NC(=O)CSc2nncc(=O)n2N)s1	?	0%	.	0.8	5%	1.4	-0.5%
CN(C)S(=O)(=O)c1cc(NC(=O)COC(=O)/C=C/c2ccco2)ccc1Cl	?	-4%	-2.8%	-1.2	3%	5.3	0.3%
CCNC(=O)Nc1cc(S(=O)(=O)Nc2ccc(OC)cc2)ccc1N1CCOCC1	.	?	0.6%	12	-8%	.	-1.3%

The main list resumes with the 4 entries that preceded the break.
SMILES	Sfp inh	gsp agonist	ClpP mod	D2 ag	gsp antag	Menin-MLL FL inh	PINK1 modulator
O=C(O)c1ccc(N/C(=N\S(=O)(=O)c2ccc(Cl)cc2)c2ccccc2)cc1	22%	25%	-1.8%	-0.9	9%	2.1	0.4%
CCCCCC(=O)N/N=C/c1cccs1	-2%	?	1.3%	-2.1	2%	3.5	4.8%[38.3 µM]
Cn1c(=O)n(CCc2ccccc2)c(=O)c2c1nc1n2CCCN1CCc1ccccc1	-4%	1%	-8.6%	-1.1	?	-0.8	-4.5%
CN(C)NC(=S)Nc1cccc(Cl)c1	13%	-15%	.	3.2	12%	6.3	-0.6%
OC(c1ccc(Cl)c(F)c1)c1ncc(-c2ccc(Oc3ccccc3)cc2)[nH]1 (stereo unspecified)	.	.	-8.1%	-1.0	.	.	-1.3%
O=C1OCc2ccc(NC(=O)C3CC3)cc21	-4%	2%[15.4 µM]	-0.6%	-3.7	4%	-2.6	0.2%
CN1C=CC(=O)[C@@H](OC(=O)Nc2ccc(Br)cc2)[C@H]1c1ccccc1Br	.	.	19%	0.2	-13%	.	-0.4%
Cc1cccc(CSc2ccc3nnc(-c4ccccn4)n3n2)c1	-21%	-9%[15.4 µM]	0.2%	8.7	-16%	-0.7	-0.8%
COc1cc2c(cc1OC)CN(C(=O)c1ccc3nc[nH]c3c1)CC2	11%	2%	-9.9%	-0.3	-13%	-4.4	3.1%
COc1ccc(/C=N/n2c(SC)nnc2-c2ccccc2)c(OC)c1OC	-21%	-1%	-1.3%	-0.3	-4%	0.5	2.6%
Cc1ccccc1CNC(=O)c1ccc2nc([C@@H]3O[C@H](CO)[C@H](O)[C@H](O)[C@H]3O)[nH]c2c1	.	.	-4.1%	-1.5	.	.	-0.7%
CCC(c1nnnn1C1CCCC1)N(Cc1cccs1)Cc1cc2cccc(C)c2[nH]c1=O (stereo unspecified)	9%	3%	-9.0%	-3.1	-3%[15.4 µM]	2.7	-0.4%
CCOc1cc(/C=C2/C(=O)N(c3ccccc3)N=C2C)ccc1OC(=O)c1cccs1	-18%	-44%[inhibitor]	2.6%	-0.7	2%	-0.2	11%[38.3 µM]
O=C(Nc1ccc(N2CCN(Cc3ccccc3F)CC2)cc1)c1ccc([N+](=O)[O-])o1	1%	-19%[15.4 µM]	-1.1%	11	11%	.	-0.5%
CC(C)=CCC/C(C)=C/Cc1c(O)ccc(C(=O)/C=C/c2ccc(O)cc2)c1O	16%	.	1.3%	-2.0	-5%	9.4	13%
NC(=O)c1cc(NC(=O)c2cc(Br)c(Br)s2)cc(C(N)=O)c1	-10%	5%[15.4 µM]	.	-3.8	0%	-0.7	1.3%
CC(C)C#Cc1ccc2c(c1)O[C@@H](CN(C)C(=O)c1cnccn1)[C@@H](C)CN([C@@H](C)CO)S2(=O)=O	.	-66%	-0.3%	-6.1	.	.	2.1%
CCOC(=O)c1cncc(NC(=O)c2ccccc2)c1	13%	8%	2.3%	0.9	-2%	-1.3	1.5%
C=C[C@]1(C)C=C2C(=O)C[C@H]3C(C)(C)CCC[C@]3(C(=O)O)[C@@]2(O)CC1	.	.	0.0%	-2.0	.	.	-0.3%
CCCCCCSc1nc(O)c(C2OC(=O)c3c2ccc(OC)c3OC)c(=O)n1CC (stereo unspecified)	10%	5%	-5.5%	-1.2	2%	0.0	-0.4%
CCN1C(=O)[C@H]2[C@@H](c3ccc(-c4cccc(Cl)c4)cc3)N[C@@](CC(C)C)(C(=O)OC)[C@H]2C1=O	.	5%	-3.2%	-3.7	-10%	.	2.7%
O=C(CCCn1c(SCC(=O)c2ccc(Cl)cc2)nc2ccccc2c1=O)NCc1ccco1	-10%	1%	-3.4%	-0.3	6%	2.2	7.1%
COc1ccc(CNC2c3ccccc3-c3ccccc32)cc1OC	16%	5%[15.4 µM]	.	-3.6	4%	-0.5	2.0%
CC1CCc2[nH]c3ccc(C(=O)N(C)CC(=O)Nc4ccccc4C(F)(F)F)cc3c2C1 (stereo unspecified)	.	-4%	-2.8%	2.5	-13%	.	-1.4%
CCOc1cccc(C2CC(=O)Nc3cc(OC)c(OC)cc32)c1 (stereo unspecified)	8%	4%	-3.8%	1.6	-4%	-0.1	-0.3%
Cc1ccc(OCCCC(=O)N(C)CC(=O)Nc2ccccc2Br)cc1	.	0%[15.4 µM]	.	-20	3%	.	0.0%
O=C(NCc1ccccc1)C1=C[C@@H](C2CCCCC2)C[C@@H](OCCCCO)O1	.	.	-2.4%	-0.9	-3%	.	0.1%
O=C(CSC1=N/C(=C/c2ccco2)C(=O)N1c1ccc(OC(F)F)cc1)NC1CCS(=O)(=O)C1 (stereo unspecified)	-18%	-3%[15.4 µM]	.	-2.3	.	?	1.2%
N#Cc1cccc(C(c2nnnn2CCc2ccccc2)N2CCN(C3CCCCC3)CC2)c1 (stereo unspecified)	4%	?	1.5%	2.0	8%	-1.0	.
COc1ccc(N2CCN(C(=O)c3ccc(-c4nc5ccccc5s4)o3)CC2)cc1	.	?	0.4%	0.3	0%	.	3.8%
